Screening data: PubChem BioAssay, ICCB-Longwood Screening Facility, Harvard Medical School
E coli growth = inhibitors of Escherichia coli growth | OD600, 23 h; stronger effect = lower value | OD600 absorbance (test concentration not listed) | 0.21% of 330,000 active | AID 1053175;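 active = OD600 absorbance below the run mean of sample wells minus 3.6 SD, in any replicate, cut at about 0.56 in these data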;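 note: stock transfer was 300 nL into about 60 µL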
* = called active by the depositor; & = joins results of further samples. An excerpt. The share of hits here may be higher or lower than overall.

For C=C1CCN(C(CC(C)C)C(=O)N2CCCC2)S(=O)(=O)c2ccccc21 (stereo not drawn) the results were E coli growth 0.69.
For COc1cc(CCCN2C(=O)C(=O)NCC2CCCCN)cc(OC)c1OC (stereo not drawn) the results were E coli growth 0.72.
Screening CCOC(=O)C1C2COc3ccc(Cl)cc3C2N2C(=O)c3ccc(C)cc3NC(=O)[C@@]12C (stereo partly drawn) returned E coli growth 0.7.
For CSCCC(C(=O)NCCCCCCCCCCC(=O)N1CCN(C(=O)OC(C)(C)C)CC1)n1cc(CCO)nn1 (stereo not drawn) the results were E coli growth 0.69.
Screening COC(=O)CC1c2cc(C(F)(F)F)ccc2S(=O)(=O)N1Cc1ccc(OC)cc1 (stereo not drawn) returned E coli growth 0.67.
For CCOC(=O)C1C2COc3ccccc3C2N2C(=O)c3cc(Br)ccc3NC(=O)[C@@]12C (stereo partly drawn) the results were E coli growth 0.68.
For COC(=O)C1=C(C)NC2=C(C(=O)CCC2)C1c1cccs1 (stereo not drawn) the results were E coli growth 0.69.
`NC(Cc1ccc(O)cc1)c1nnc(C(CC(=O)O)NC(=O)C2CCNCC2)o1` (stereo not drawn) gave E coli growth 0.7.
Screening COC(=O)C(NC(=O)OC1C(=O)c2ccc(OC)cc2OC1c1cccc(C(F)(F)F)c1)C(C)C (stereo not drawn) returned E coli growth 0.68.
CCN1CC2C3C(=O)N(Cc4ccccc4)C(=O)C3[C@](C)(C1=O)N2C(=O)c1ccc(F)cc1 (stereo partly drawn) was read as E coli growth 0.72.
Screening O=C1C=C(c2ccc(-c3ccccc3)cc2)CC(c2ccc(Cl)cc2)C1 (stereo not drawn) returned E coli growth 0.66.
O=C1C2CC3C=CC2(O3)C2OCCCN12 (stereo not drawn) was read as E coli growth 0.66.
For CCCCC1C(=O)CCC2C(CC=CCCCC(=O)O)C(=O)CC12 (stereo not drawn) the results were E coli growth 0.71.
Screening O=C(NCc1ccccc1)C1=CC(c2ccc(Br)cc2)CC(OCCCCO)O1 (stereo not drawn) returned E coli growth 0.69&0.7.
Screening C#CCOCCOCCOCCNc1nc(N2CCN(C(=O)C(Cc3cc4ccccc4[nH]3)n3cc(C(N)CC(C)C)nn3)CC2)nc(N2CCN(C(=O)C(Cc3ccc(O)cc3)n3cc(C(N)C(C)CC)nn3)CC2)n1 (stereo not drawn) returned E coli growth 0.61.
Screening O=C(C1=CC(c2csc3ccccc23)CC(OCc2ccc(CO)cc2)O1)N1CCN(Cc2ccc3c(c2)OCO3)CC1 (stereo not drawn) returned E coli growth 0.7.
`CCOC(=O)C1=C(O)C(=Cc2ccc(CNC(=O)C(=O)Nc3ccccc3)o2)N=C1C` gave E coli growth 0.67.
`C=CCCC(Cc1ccc(F)cc1)C(=O)OCC(Cc1ccccc1)NC(=O)C(CC=C)CC(=O)NC(CO)Cc1ccccc1` (stereo not drawn) gave E coli growth 0.75.
For CCOC(=O)c1ccc(C=C2c3ccccc3C(=O)N2c2ccccc2)cc1F the results were E coli growth 0.69.
For C=CCN1c2ccccc2[C@]23CC(C(=O)OC)N(C(=O)c4ccco4)C2=NC(C(=O)OC)=C(C(=O)OC)C13 (stereo partly drawn) the results were E coli growth 0.71.
For O=C(Nc1ccccc1)C1CC=CC2CCN(C3CCCCC3)C(=O)C21 (stereo not drawn) the results were E coli growth 0.7.
Cc1ccc2c(c1)C1C(CO2)C(c2ccccc2)[C@]2(C)C(=O)Nc3cc(F)c(F)cc3C(=O)N12 (stereo partly drawn) was read as E coli growth 0.71.
Screening Cc1ccc(C=CC2=NN(C)C(=O)CC2)cc1 returned E coli growth 0.69.
COc1ccc(C2C3C(=O)N(C(C)(C)C)C(=O)C3[C@]3(Cc4ccc(Cl)cc4)C(=O)N(c4ccc(C)cc4)C(=O)N23)cc1 (stereo partly drawn) was read as E coli growth 0.74.
CCOC(=O)C1C2COc3ccc(C)cc3C2N2C(=O)c3ccc(Cl)cc3NC(=O)[C@@]12C (stereo partly drawn) was read as E coli growth 0.7.
`COc1cc2sc3cc(NCCC4CCCN4C)ccc3c(=O)c2cc1OC` (stereo not drawn) gave E coli growth 0.68.
O=C(Nc1ccc(C(=O)O)cc1)C(=Cc1ccc2c(c1)OCO2)NC(=O)c1cccc(Br)c1 was read as E coli growth 0.72.
For C=C(C)C(=O)Nc1cccc(C2=NOC3(C2)CC(C(N)=O)N(C(=O)c2ccccc2)C3)c1 (stereo not drawn) the results were E coli growth 0.67.
For CC(=O)CC1c2cc(C(F)(F)F)ccc2S(=O)(=O)N1Cc1ccccc1 (stereo not drawn) the results were E coli growth 0.67.
Screening CCN1C(=O)C2C(c3ccc(-c4cccc(Cl)c4)cc3)N3CCCC[C@@]3(C(=O)OC)C2C1=O (stereo partly drawn) returned E coli growth 0.69.
Screening O=S1(=O)CCOC2Cc3ccccc3C2N1Cc1cccc(Cl)c1 (stereo not drawn) returned E coli growth 0.64.
For CC1NC(=O)C(CCC(N)=O)NC(=O)c2cc([N+](=O)[O-])cc(I)c2NCCC(C(N)=O)NC1=O (stereo not drawn) the results were E coli growth 0.71.
NC1=NCC(c2ccccc2)N1CCc1cccc(F)c1 (stereo not drawn) was read as E coli growth 0.69.
`CCC(=O)N1CC2(CC(c3cccc(NC(=O)COc4ccc(Cl)cc4)c3)=NO2)CC1C(N)=O` (stereo not drawn) gave E coli growth 0.71.
Screening CC[C@]12C(=O)N(C)CC(C3C(=O)N(C)C(=O)C31)N2C(=O)c1ccccc1 (stereo partly drawn) returned E coli growth 0.69.
CC=CC(=O)N1CC2(CC(c3cccc(NC(=O)CCCCC)c3)=NO2)CC1C(N)=O (stereo not drawn) was read as E coli growth 0.68.
COc1ccccc1CN1C(CC(C)=O)c2cc(C(F)(F)F)ccc2S1(=O)=O (stereo not drawn) was read as E coli growth 0.7.
Screening COc1c(O)ccc(C=C(C#N)c2nc3ccccc3[nH]2)c1[N+](=O)[O-] returned E coli growth 0.66.
`N#CC(=Cc1ccc(N2CCOCC2)o1)C(=O)NCCc1ccccc1` gave E coli growth 0.71.
`C#CCOCCOCCOCCNc1nc(N2CCN(C(=O)C(CCCCN)n3cc(C(N)CC(C)C)nn3)CC2)nc(N2CCN(C(=O)C(Cc3ccc(O)cc3)n3cc(C(N)C(C)CC)nn3)CC2)n1` (stereo not drawn) gave E coli growth 0.69.
For COc1ccc(C2CC(=O)C=C(c3cccc4c3sc3ccccc34)C2)cc1OC (stereo not drawn) the results were E coli growth 0.73.
`CN(C(C(=O)OC(C)(C)C)c1ccccc1)S(=O)(=O)c1cccc(S(=O)(=O)N(C)C(C(=O)OC(C)(C)C)c2ccccc2)c1` (stereo not drawn) gave E coli growth 0.73.
For CC=C(C)C(=O)OC1CC(C)(C)CC2C3=CCC4[C@@]5(C)CCC(OC6OC(C(=O)O)C(O)C(OC7OCC(O)C(O)C7OC7OC(CO)C(O)C(O)C7O)C6OC6OC(CO)C(O)C(O)C6O)[C@@](C)(CO)C5CC[C@]4(C)[C@]3(C)CC(O)[C@@]12CO (stereo partly drawn) the results were E coli growth 0.67&0.7.
Screening C#CCOCCOCCOCCNc1nc(N2CCN(C(=O)C(CCCCN)n3cc(C(N)CO)nn3)CC2)nc(N2CCN(C(=O)C(CCCCN)n3cc(C(N)CC(C)C)nn3)CC2)n1 (stereo not drawn) returned E coli growth 0.71.
For COC(=O)C(NCc1cccc(CNC(C(=O)OC)C(C)C)c1)C(C)C (stereo not drawn) the results were E coli growth 0.67.

16 entries from above, ordered by SMILES length, low to high.
NC1=NCC(c2ccccc2)N1CCc1cccc(F)c1 (stereo not drawn) was read as E coli growth 0.69.
`N#CC(=Cc1ccc(N2CCOCC2)o1)C(=O)NCCc1ccccc1` gave E coli growth 0.71.
For COC(=O)C(NCc1cccc(CNC(C(=O)OC)C(C)C)c1)C(C)C (stereo not drawn) the results were E coli growth 0.67.
For CC(=O)CC1c2cc(C(F)(F)F)ccc2S(=O)(=O)N1Cc1ccccc1 (stereo not drawn) the results were E coli growth 0.67.
For COc1ccc(C2CC(=O)C=C(c3cccc4c3sc3ccccc34)C2)cc1OC (stereo not drawn) the results were E coli growth 0.73.
COc1ccccc1CN1C(CC(C)=O)c2cc(C(F)(F)F)ccc2S1(=O)=O (stereo not drawn) was read as E coli growth 0.7.
Screening COc1c(O)ccc(C=C(C#N)c2nc3ccccc3[nH]2)c1[N+](=O)[O-] returned E coli growth 0.66.
CC=CC(=O)N1CC2(CC(c3cccc(NC(=O)CCCCC)c3)=NO2)CC1C(N)=O (stereo not drawn) was read as E coli growth 0.68.
Screening CC[C@]12C(=O)N(C)CC(C3C(=O)N(C)C(=O)C31)N2C(=O)c1ccccc1 (stereo partly drawn) returned E coli growth 0.69.
O=C(Nc1ccc(C(=O)O)cc1)C(=Cc1ccc2c(c1)OCO2)NC(=O)c1cccc(Br)c1 was read as E coli growth 0.72.
`CCC(=O)N1CC2(CC(c3cccc(NC(=O)COc4ccc(Cl)cc4)c3)=NO2)CC1C(N)=O` (stereo not drawn) gave E coli growth 0.71.
Screening CCN1C(=O)C2C(c3ccc(-c4cccc(Cl)c4)cc3)N3CCCC[C@@]3(C(=O)OC)C2C1=O (stereo partly drawn) returned E coli growth 0.69.
For CC1NC(=O)C(CCC(N)=O)NC(=O)c2cc([N+](=O)[O-])cc(I)c2NCCC(C(N)=O)NC1=O (stereo not drawn) the results were E coli growth 0.71.
`CN(C(C(=O)OC(C)(C)C)c1ccccc1)S(=O)(=O)c1cccc(S(=O)(=O)N(C)C(C(=O)OC(C)(C)C)c2ccccc2)c1` (stereo not drawn) gave E coli growth 0.73.
Screening C#CCOCCOCCOCCNc1nc(N2CCN(C(=O)C(CCCCN)n3cc(C(N)CO)nn3)CC2)nc(N2CCN(C(=O)C(CCCCN)n3cc(C(N)CC(C)C)nn3)CC2)n1 (stereo not drawn) returned E coli growth 0.71.
`C#CCOCCOCCOCCNc1nc(N2CCN(C(=O)C(CCCCN)n3cc(C(N)CC(C)C)nn3)CC2)nc(N2CCN(C(=O)C(Cc3ccc(O)cc3)n3cc(C(N)C(C)CC)nn3)CC2)n1` (stereo not drawn) gave E coli growth 0.69.

(listing goes on)
`Cc1ccc(S(=O)(=O)NC(C(=O)N2CCC3(O)CCCCC3C2)c2ccccc2)cc1` (stereo not drawn) gave E coli growth 0.69.
`Cc1cccc(C(=O)NC2c3ccccc3CC2O)n1` (stereo not drawn) gave E coli growth 0.7.
CCCN1CCC(=O)N(C(COc2ccccc2)Cc2ccccc2)CC1 (stereo not drawn) was read as E coli growth 0.64.
Screening CC(C)CC(N)c1cn(C(Cc2cc3ccccc3[nH]2)C(=O)N2CCNCC2)nn1 (stereo not drawn) returned E coli growth 0.7.
Screening CC(C)(C)OC(=O)CC1CC=CCC(CC(=O)NCCO)C(=O)NC(C(C)(C)C)COC1=O (stereo not drawn) returned E coli growth 0.69.
For C#CCCOC(=O)N1C2=NC(C(=O)OC)=C(C(=O)OC)C3N(Cc4ccccc4)c4ccccc4[C@]23CC1C(=O)OC (stereo partly drawn) the results were E coli growth 0.68.
O=C1CCC(OCc2ccccc2)CCN1CCC(Sc1ccccc1)c1ccccc1 (stereo not drawn) was read as E coli growth 0.69.
`C#CCOCCOCCOCCNc1nc(N2CCN(C(=O)C(C)n3cc(CCCN=C(N)N)nn3)CC2)nc(N2CCN(C(=O)C(C(C)CC)n3cc(CCCCN)nn3)CC2)n1` (stereo not drawn) gave E coli growth 0.7.
For COc1ccc(-c2cccc(C3C4C=CCC[C@@]4(C)C(=O)N3Cc3ccccc3)c2)cc1 (stereo partly drawn) the results were E coli growth 0.69.
For CSCCC(Nc1ncnc2sc(C)c(C)c12)C(=O)O (stereo not drawn) the results were E coli growth 0.7.
CC1NC(=O)C(CC(N)=O)NC(=O)c2cc([N+](=O)[O-])cc(I)c2OCCC(C(=O)NC(CC(=O)O)C(N)=O)NC1=O (stereo not drawn) was read as E coli growth 0.7.
Screening CC(=CC1CCCCC1)C(NC(=O)c1ccc(C(F)(F)F)cc1)c1ccc(-c2ccccc2)cc1 (stereo not drawn) returned E coli growth 0.73.
For CCOc1ccc(-n2c(C)cc(C=C3C(=N)N4C(=NC3=O)SN=C4S(C)(=O)=O)c2C)cc1 the results were E coli growth 0.72.
For C#CCOCCOCCOCCNc1nc(N2CCN(C(=O)C(CC(N)=O)n3cc(C(N)C(C)C)nn3)CC2)nc(N2CCN(C(=O)C(CCCN=C(N)N)n3cc(C(N)C(C)CC)nn3)CC2)n1 (stereo not drawn) the results were E coli growth 0.64.
Screening NC(=O)C1CC2(CC(c3cccc(NC(=O)CC(c4ccccc4)c4ccccc4)c3)=NO2)CN1C(=O)COc1ccc(Cl)cc1 (stereo not drawn) returned E coli growth 0.7.
`CNC(=O)c1[nH]cnc1C(=O)NC(C)C(=O)OC(C)(C)C` (stereo not drawn) gave E coli growth 0.7.
Screening Cc1noc(C)c1NC(=O)N(C)CC1Oc2ccc(NC(=O)CCN3CCOCC3)cc2C(=O)N(C(C)CO)CC1C (stereo not drawn) returned E coli growth 0.67.
`C=CC(Cc1ccccc1)N(Cc1ccccc1)S(=O)(=O)N(Cc1ccccc1)C(C=C)Cc1ccccc1` (stereo not drawn) gave E coli growth 0.65.
